Screening results as filed in PubChem BioAssay.
Six1-Eya2 blk: qHTS Assay for Inhibitors of the Six1/Eya2 Interaction; Homeobox protein SIX1 (Homo sapiens) + Protein phosphatase EYA2 (Homo sapiens), …; AlphaScreen GST-Six1/His-Eya2 binding, biochemical; hits give low values; control for the full effect not named in the record; activity change, % (no concentration beside the values); 0.56% of 360,000 active; AID 651725, 2012; in the data active = activity change below about -65%; inconclusive = about -30% to -65%; inactive = above about -30%; also: % is scaled to controls: 0 for no effect and ±100 for the full control effect; compound concentration not given in the record
Target sequence (O00167 whole entry, looked up): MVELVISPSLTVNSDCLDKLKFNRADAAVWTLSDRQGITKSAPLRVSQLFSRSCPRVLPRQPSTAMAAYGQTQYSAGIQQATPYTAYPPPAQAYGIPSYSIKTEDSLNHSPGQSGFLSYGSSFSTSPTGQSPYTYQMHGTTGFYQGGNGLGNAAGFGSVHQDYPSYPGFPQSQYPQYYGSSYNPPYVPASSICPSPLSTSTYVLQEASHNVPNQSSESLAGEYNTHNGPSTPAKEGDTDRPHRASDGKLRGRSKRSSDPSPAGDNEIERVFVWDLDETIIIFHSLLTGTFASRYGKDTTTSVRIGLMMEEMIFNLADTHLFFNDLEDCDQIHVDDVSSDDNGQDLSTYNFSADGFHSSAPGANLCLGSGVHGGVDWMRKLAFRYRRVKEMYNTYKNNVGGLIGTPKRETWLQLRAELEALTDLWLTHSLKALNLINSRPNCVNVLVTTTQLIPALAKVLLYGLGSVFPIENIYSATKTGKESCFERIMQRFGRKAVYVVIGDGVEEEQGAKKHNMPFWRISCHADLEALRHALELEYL
Target sequence (Q15475 whole entry, looked up): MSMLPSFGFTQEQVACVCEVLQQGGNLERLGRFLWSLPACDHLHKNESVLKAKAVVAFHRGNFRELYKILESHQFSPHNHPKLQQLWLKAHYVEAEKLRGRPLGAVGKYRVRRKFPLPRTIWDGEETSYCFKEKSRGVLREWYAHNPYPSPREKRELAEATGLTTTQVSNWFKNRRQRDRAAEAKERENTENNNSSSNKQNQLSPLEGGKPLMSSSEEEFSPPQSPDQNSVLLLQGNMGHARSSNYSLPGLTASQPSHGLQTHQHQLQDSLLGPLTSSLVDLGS
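Six1/Eya2 binding was read as AlphaScreen signal after compounds were pinned into GST-Six1 plus His-tagged Eya2 (5X stock 250/500 nM) in pH 8.0 Tris/NaCl/TCEP buffer, beads added, then incubated 1 h, 37 C, dark.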
CtBP-E1A inh: qHTS Assay for Inhibitors of the CtBP/E1A Interaction | AlphaScreen GST-E1A/His-CtBP binding, 1536-well; hits give low values; control for the full effect not named in the record | activity change, % (test concentration not listed) | 0.49% of 340,000 active; in the data active means activity change below about -65%; inconclusive means about -30% to -65%; inactive means above about -30%; also: % is scaled to controls: 0 for no effect and ±100 for the full control effect; compound concentration not given in the record
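Steps: dispense buffer (Tris pH 8.0, NaCl 300 mM, TCEP 1 mM, BSA, Tween 20); add 5X protein mix (GST-E1A, His-CtBP, 125 nM each); pin 23 nL compound; 2 h at 37 °C, dark; add 5X beads (50 ug/mL); 1 h; read.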
TRPML1 agonist: qHTS for Agonists of the Human Mucolipin Transient Receptor Potential 1 (TRPML1) | Mucolipin-1 (Homo sapiens), Q9GZU1 | TRPML1-expressing cells, Ca2+ dye fluorescence, FDSS; host cell line not named in the record; reference of the full effect not given here | activation, % (test concentration not listed) | 0.12% of 410,000 active; in the data active = activation above about 50%; inconclusive = about 30% to 50%; inactive = below about 30%; also: 0% is about no effect; the text of the record puts the active cut at 80%
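TRPML1-DL cells, Tet-induced overnight (~16 h, 37 degrees C), loaded 45-90 min at room temperature with Ca8 no-wash calcium dye plus quencher. FDSS fluorescence: 10 s baseline, compound pin-transfer, 110 s agonist read, then EC80 54-4 (4uM final) and 110 s antagonist read.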
TRPML1 blocker: qHTS for Inhibitors of the Human Mucolipin Transient Receptor Potential 1 (TRPML1). TRPML1-inducible cells, Ca2+ dye fluorescence, FDSS; hits give low values; inhibition of EC80 agonist-evoked calcium signal. activity change, negative = inhibition, % (concentration not given with the values). Mucolipin-1 (Homo sapiens), Q9GZU1. 0.02% of 390,000 active. AID 624415, 2012; in the data active means activity change below about -50%; inconclusive means about -30% to -50%; inactive means above about -30%;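 also: stimulus is agonist 54-4 at its EC80 concentration; % is scaled to controls: 0 for no effect and ±100 for the full control effect; compound concentration not given in the record; the text of the record puts the active cut at -80%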
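TRPML1-DL cells, Tet-induced overnight (~16 h, 37 °C) at 1,500 cells/well, were loaded with Ca8 no-wash dye plus quencher for 45-90 min at room temperature. Compounds were pinned during FDSS kinetic reading; agonist 54-4 at EC80 (4 uM final) then added.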
D2 agonist: Beta-Arrestin HTS for Positive Allosteric Modulators of the Human D2 Dopamine Receptor: Agonists | D(2) dopamine receptor (Homo sapiens), P14416 | DiscoveRx PathHunter D2 beta-arrestin, luminescence, 90 min; 100% = 57 uM dopamine signal | activation, % (test concentration not listed) | 0.084% of 360,000 active | AID 624465, 2012; in the data active = activation above about 40%; inconclusive = about 15% to 40%; inactive = below about 15%; also: compound concentration not given in the record; the text of the record calls up to 30% inactive
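DiscoveRx PathHunter D2 beta-arrestin cells (2,100/well) attached overnight, then compound-stimulated 90 min at 37 C in HBSS/10 mM HEPES/0.1% Tween-20 buffer; beta-galactosidase complementation read by luminescence after 1 h at ambient temperature. Dopamine 57 uM final (EC100) as control.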
PINK1 expr mod: A Quantitative High throughput Screen to Identify Chemical Modulators of PINK1 Expression | PINK1 immunofluorescence, high-content cytometry, 24 h | Potency, µM (series often up to 76.6 µM), inactives show at the top dose activation (PINK1 increase), usual class: activators | 0.2% of 410,000 active | AID 624263, 2012; active = well fitted activation curve with a large enough effect; inconclusive = small, poorly fitted or top-dose-only effect; inactive = flat fitted curve, though single readings scatter; cell line not stated here;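 also: potency is read from the fitted curve at half-maximal effect; % of control where 0% means no effect; nearly all actives have a fitted effect of over 65% in size; a mitochondrial uncoupler was the plate control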
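Decision-based qHTS: stable cells, 24 h exposure to five compound concentrations, CCCP as control. Fixed cells stained for PINK1 plus nuclear, mitochondrial and cell markers, cytometer read.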
* marks the source's active call; other numbers are inactive results; ? = inconclusive; / = not tested or not shown; & = joins results of further samples; [ ] = another dose, or the depositor's remark.

canonical_smiles	Six1-Eya2 blk	CtBP-E1A inh	TRPML1 agonist	TRPML1 blocker	D2 agonist	PINK1 expr mod
O=C(CCCN1C(=O)c2cccc3cccc(c23)C1=O)OCC(=O)N1CCCCC1	-7	1	-1.2	7	-0.7	0.2%
CCCc1cc(C(=O)NCc2cccnc2)no1	1	1	0.1	-10	-3.6	5.3%
CC1=C[C@H](C)[C@H](c2c(F)cccc2Cl)CC1=O	5	4	-1.0&0.9	25&-7	-0.5	-0.3%
CCC1(O)c2ccccc2-c2ncccc21 (stereo not drawn)	3	3	0.2	4	1.5	17%
Cn1ccsc1=NC(=O)c1cccc(C#N)c1	-9	5	12	44	-0.9	-1.9%
O=C(COC(=O)/C=C/c1ccc([N+](=O)[O-])cc1)NCc1ccc2c(c1)OCO2	13	7	/	/	2.7	-0.7%
C=CCNc1nnc(Cc2ccc(C(C)C)cc2)c(=O)[nH]1	-18	-22	0.6	1	6.7	2.1%
CC(C)(C)Nc1c([N+](=O)[O-])c(=O)sc2ccccc12	7	3	0.0	-1	1.4	6.7%
COc1ccc(CC(=O)OCC(=O)NC2CC2)cc1	1	1	3.4	9	0.5	-0.2%
CC1(C)Cc2c(cnn2-c2ccccc2)C(NC(=O)CCc2ccncc2)C1 (stereo not drawn)	13	5	0.4	-4	-1.8	2.1%
Cc1ccc(S(=O)(=O)c2cn(Cc3ccc(F)cc3)c3cc(F)c(F)cc3c2=O)cc1	/	/	-0.2	-11	/	0.5%
CC1CCc2sc(C(=O)OCC(=O)NC(N)=O)cc2C1 (stereo not drawn)	0	1	-0.4	18	-2.3	-0.8%

A few values from the list:
CC1(C)Cc2c(cnn2-c2ccccc2)C(NC(=O)CCc2ccncc2)C1 (stereo not drawn) | D2 agonist: -1.8
COc1ccc(CC(=O)OCC(=O)NC2CC2)cc1 | CtBP-E1A inh: 1

Other records follow.
canonical_smiles	Six1-Eya2 blk	CtBP-E1A inh	TRPML1 agonist	TRPML1 blocker	D2 agonist	PINK1 expr mod
N#CCCNc1c(Cl)cc(Cl)cc1C(=O)O	8	0	0.7	0	-3.0	2.0%
CC1CCCN(CCCNC(=O)C2CCN(S(=O)(=O)N3CCC4(CC3)OCCO4)CC2)C1 (stereo not drawn)	3	/	2.3	-18	-5.3	-1.1%
NC(=O)CNC(=O)[C@@H]1CC2(CC(c3ccc(Cl)cc3)=NO2)CN1C(=O)c1ccccc1 (stereo partly drawn)	10	-23	-0.5	-24	0.6	-0.3%
CC(=O)Nc1ccc(S(=O)(=O)NCc2ccc(C(=O)N3CCOCC3)cc2)cc1	0	3	-0.3	24	3.3	-1.2%
Cc1cc(OCC(=O)N2CCC(O)(c3ccc(Cl)cc3)CC2)c2c(C)cc(=O)oc2c1	3	0	0.2	8	-1.3	1.7%
O=C(CCC(=O)N1CCN(c2ccccn2)CC1)c1ccc(Cl)s1	-9	1	-0.3	-14	-1.2	3.8%
Clc1cccc(Cc2c(C3CCCCC3)nc3c4ccccc4ccn23)c1	0	5	0.3	/	/	17%
CCCCC/C=C\C/C=C\C/C=C\CCCCC(=O)O	-8	-20	-0.6	3	1.2	0.8%
Cc1ccc(-c2nc(CS(=O)CC(=O)NC3CC3)c(C)o2)cc1 (stereo not drawn)	6	/	1.7	-8	0.7	1.5%
COc1ccc(OC)c(CCNC(=O)CCn2c(=O)c3cccn3c3cccnc32)c1	/	/	-0.8	0	/	0.2%
O=C1C=Cc2ccccc2/C1=C/c1[nH]c(=O)[nH]c1O	-10	/	0.3	-18	0.4	-0.8%
CC(C)N(C(=O)CO/N=C/c1cccc([N+](=O)[O-])c1)C(C)C	1	-17	1.3	12	1.9	-0.5%
CCOc1ccc(-n2c(N)c(C(=O)NCC3CCCO3)sc2=S)cc1 (stereo not drawn)	-7	-1	0.9	-1	-5.8	-2.7%
O=S(=O)(c1ccc(Br)cc1)N1CCn2c(nc3ccccc32)C1	0	2	-0.4	-3	2.2	1.5%
Cc1cccc(N2CCN(S(=O)(=O)c3ccc(-c4cnc(C5CC5)o4)cc3)CC2)c1C	/	/	-0.6	53	/	3.1%
COC(=O)COc1cc(=O)oc2ccc(NS(=O)(=O)c3ccccc3)cc12	-6	/	-0.4	1	5.1	0.3%
COc1ccc(CCNc2nc(-c3cccnc3)nc3ccccc23)cc1OC	?	?	0.4	-9	?	-0.5%
CC[C@H]1C(c2ccc(F)cc2)=NN(c2ccccc2)[C@@H]1CO	41	43	-1.0	-7	1.4	6.7%
COc1cccc(CSc2nc3cc4c(cc3cc2C)OCCO4)c1	27	20	2.7	14	-2.5	12%
COc1ccc(C(c2sc3nc(C)nn3c2O)N2CCCCC2)cc1 (stereo not drawn)	7	14	-0.4	-14	-1.5	0.0%
COc1ccc(CNC(=O)c2cnc(N3CCOCC3)c3ccccc23)cc1	/	/	-0.1	-3	/	0.4%
Cc1c(NC(=O)c2cccc(NC(=O)COc3ccc(C#N)cc3)c2)c(=O)n(-c2ccccc2)n1C	-11	0	-0.5	1	-2.5	-0.9%
O=C(COC(=O)/C=C/c1ccc(F)cc1)Nc1cc(C(F)(F)F)ccc1N1CCOCC1	-1	4	-0.3	14	5.1	3.7%
COc1ccc(NC2CCCN(C(=O)CSc3ccccn3)C2)cc1OC (stereo not drawn)	10	0	1.0	-7	-0.4	-1.4%
O=C(C1CCN(S(=O)(=O)c2cccc3cccnc23)CC1)N1CCN(C2CCCCC2)CC1	-2	-2	-0.1	0	-5.4	0.0%
CCc1nc2n(n1)C(O)c1cc([N+](=O)[O-])ccc1S2 (stereo not drawn)	7	-1	0.1	-2	0.6	0.1%
Cn1nc(C(F)(F)F)c2cc(C(=O)Nc3ccc(C(F)(F)F)cc3)sc21	1	7	1.3	56	1.2	?
COc1ccc(C(=O)c2sc3nc(-c4ccccc4)ccc3c2N)cc1	32	45	?	5	4.4	4.7%
CCOC(=O)C1CCCN(C(=O)c2cc(F)ccc2C)CC1 (stereo not drawn)	3	6	0.4	9	-2.4	-1.2%
COc1ccc(Cl)cc1NC(=O)CCCN1C(=O)C(c2ccccc2)Oc2cccnc21 (stereo not drawn)	/	/	2.4	50	/	2.2%
CSC(=NCc1ccc(F)cc1)NS(=O)(=O)c1cccs1	-4	2	0.6	9	-4.0	0.7%
O=C(Nc1ccc(OC(F)(F)F)cc1)C1CCCN(S(=O)(=O)c2cccc3nonc23)C1 (stereo not drawn)	/	/	-0.6	3	/	?
Cc1cc(NC(=O)N2CCC(CN3CCOCC3)CC2)ccc1Br	/	/	1.8	20	/	-1.1%
Cc1cccc(OCC(=O)N2CCC3(CC2)CC(=O)c2ccccc2O3)c1	1	1	0.2	-6	-2.1	-0.6%
CCN(C(=O)COC(=O)CCc1ccc(OC)cc1)c1c(N)n(Cc2ccccc2)c(=O)[nH]c1=O	1	0	-0.3	-13	0.1	4.8%
Cc1cccc(NS(=O)(=O)c2cc(Cl)ccc2Cl)n1	35	0	0.2	-3	-1.8	1.9%
CC(=O)c1cccc(NC(=O)C2CCCN(S(C)(=O)=O)C2)c1 (stereo not drawn)	1	8	0.3	-4	1.8	/
Cc1ccccc1NC(=O)NC1CCCCC1C (stereo not drawn)	1	-6	0.7	-4	-1.0	0.0%
Cn1c(=O)[nH]c(=O)c2c1nc(SCC(O)CO)n2Cc1ccccc1Cl (stereo not drawn)	3	-4	0.3	2	-2.6	1.2%[38.3 µM]
COCCCNC(=O)c1ccc(NC(C)=O)cc1	15	/	2.7	26	-0.3	-0.1%
CCC(=O)N1CCC(C)(C(=O)Nc2ccc3c(c2)OCCO3)C1 (stereo not drawn)	-2	2	-0.6	/	3.9	1.2%
Cc1nnc(SCCCn2c(N3CCCCC3)nc3c2c(=O)[nH]c(=O)n3C)s1	0	6	-0.6	-1	-1.1	-1.5%[38.3 µM]
Clc1ccc2c(NCc3ccco3)ncnc2c1	-13	0	1.3	8	1.3	-1.8%
COC(C(=O)Nc1ccc(C(C)=O)cc1)c1ccccc1 (stereo not drawn)	0	2	-0.6	-12	-4.4	-0.9%
Cc1ccc(O)c(CNc2ccc(S(=O)(=O)Nc3nccs3)cc2)c1	-20	-17	1.2	31	1.7	2.7%
O=C(O)/C=C/C(=O)Nc1cccc2cccnc12	0	/	0.0&3.0	-19&8	4.9	2.1%&1.5%
CCCC(O)c1nc2ccccc2n1CCCCOc1ccc(OC)cc1 (stereo not drawn)	/	/	-1.0	19	/	0.2%
COc1ccc(OCCN2C(=O)c3ccccc3C2=O)cc1	-2	-3	-0.2	4	1.6	1.9%
Cc1ccccc1NC(=O)CSc1nc2ccc(NC(=O)c3ccco3)cc2s1	/	/	4.5	10	/	0.4%
COc1ccc(N2C(=NC(=O)CC3CCCCC3)SC3CS(=O)(=O)CC32)cc1 (stereo not drawn)	7	2	-0.5	27	1.5	0.1%
CSc1nc(-c2ccccc2)nc(N2CCCC2)c1C(C)=O	9	13	0.4	-6	-1.9	0.0%[38.3 µM]
O=C(O)c1cc([N+](=O)[O-])ccc1-c1ccc([N+](=O)[O-])cc1C(=O)O	-2	1	0.0	22	-1.3	3.7%
CC1CCCCC1NC(=O)Cn1cnc2ccccc2c1=O (stereo not drawn)	7	1	0.7	-3	-3.0	-2.0%
COc1ccc(OCc2nnc(SC3CCOC3=O)n2-c2ccccc2)cc1 (stereo not drawn)	6	10	0.2	1	1.1	/
O=C(O)CCN1Cc2ccccc2C1=O	2	-6	-0.4	-12	-2.1	-2.6%
CC1Oc2ccccc2N(CC(=O)NCC2CCCO2)C1=O (stereo not drawn)	11	2	0.8	1	0.1	1.4%
CC(OC(=O)/C(C#N)=C/c1ccc(N(C)C)cc1)C(=O)N(C)c1ccccc1 (stereo not drawn)	21	6	?	-19	1.7	0.6%
O=C(CN(CCc1ccccc1)C(=O)CN1C(=O)COc2ccccc21)NCc1ccco1	-2	-16	0.7	16	2.2	6.0%[38.3 µM]
CCC(c1nnc(SCC(=O)Nc2ccc(NC(C)=O)cc2)n1Cc1ccccc1)N(C)C (stereo not drawn)	-1	0	-0.5	-4	-3.4	1.4%

Compounds were not picked by outcome. About 1% of those tested had a hit in this group.
